NS1 inh: inhibitors of influenza NS1 protein function; AID 2326; Potency, µM (series often up to 46.1 µM), inactives show top-dose activity, positive = more growth; 270,000 compounds, 0.4% hits; S. cerevisiae slowed by influenza A NS1, growth recovery by OD600; also: actives are rising curves; nearly all actives have a fitted effect of over 50% in size
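Compounds were scored for reversing the slow growth caused by influenza A NS1 in S. cerevisiae, measured by optical density at 600 nm. Assay medium contained 2% galactose at pH 6.0; NS1-free yeast of the same strain were the positive control.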
MARV entry inh: Marburg virus entry inhibition; Marburg virus pseudotyped entry inhibition, cell reporter; control for the full effect not named in the record; about a third of the inactives were read at about 46 µM; 300,000 compounds, 1.8% hits; AID 540276; Potency, µM (titrated, usually from 37.8 µM), for the others: top-dose activity change, negative = inhibition, most hits filed as inhibitors; active = well fitted inhibition curve with a large enough effect; inconclusive = small, poorly fitted or top-dose-only effect, or effect the other way; inactive = flat fitted curve, though single readings scatter; tested in HEK293 cells; about a fifth of its hits are not listed in these tables; also: % is scaled to controls: 0 for no effect and ±100 for the full control effect; luciferase read-out
Cruzain noTriton: blocks cruzain activity in detergent-free assay. P25779. purified cruzain, Z-FR-AMC fluorescence, no detergent. Potency, µM, without a hit: max response, negative = inhibition, usual class: inhibitors. 200,000 compounds, 2.3% hits. AID 1476; active = well fitted curve in the direction sought with a large enough effect; inconclusive = small, poorly fitted or top-dose-only effect, or another doubt; inactive = no such curve, though single readings can be large; an effect the other way counts as inactive or inconclusive;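 also: plate controls were enzyme without inhibitor for no effect and buffer without enzyme for full effect; nearly all actives have a fitted effect of over 40% in size; top concentration of the series not given in the record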
Target sequence (P25779 123-467 limits assumed): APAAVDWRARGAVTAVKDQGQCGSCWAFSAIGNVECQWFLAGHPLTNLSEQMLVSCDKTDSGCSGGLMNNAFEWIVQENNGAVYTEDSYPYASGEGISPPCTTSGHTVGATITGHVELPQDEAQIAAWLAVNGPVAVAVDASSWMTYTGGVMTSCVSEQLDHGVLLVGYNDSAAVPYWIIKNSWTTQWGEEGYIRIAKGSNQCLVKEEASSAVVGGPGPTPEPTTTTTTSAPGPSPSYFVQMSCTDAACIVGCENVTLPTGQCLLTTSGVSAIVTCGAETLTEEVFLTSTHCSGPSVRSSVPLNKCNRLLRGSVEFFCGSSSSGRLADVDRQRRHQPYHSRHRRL
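Detergent-free condition (0.00005% Triton X-100) in acetate buffer pH 5.5 with DTT. 1.5 nM enzyme and compound were pre-mixed 15 min, then 2 uM Z-FR-AMC substrate added; reaction progress from fluorescence change between first and third reads (60 s).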
Lassa entry inh: Lassa virus entry inhibition; Lassa virus pseudotype entry inhibition, cell reporter; control for the full effect not named in the record; Potency, µM (highest dose often 37.9 µM), for inactives: top-dose activity change, negative = inhibition, hits mostly inhibitors; 300,000 compounds, 1.2% hits; active means well fitted inhibition curve with a large enough effect; inconclusive means small, poorly fitted or top-dose-only effect, or effect the other way; inactive means flat fitted curve, though single readings scatter; tested in HEK293 cells; also: % is scaled to controls: 0 for no effect and ±100 for the full control effect; nearly all actives have a fitted effect of over 50% in size; luciferase read-out
2A StopGo: FMDV 2A StopGo reporter, luciferase signal; human cells with a luciferase reporter of 2A StopGo recoding; control for the full effect not named in the record; Potency, µM (highest dose often 57.9 µM), for the others: at the top dose signal change, negative = less light; 410,000 compounds, 1.2% hits; active = well fitted falling curve with a large enough effect; inconclusive = small, poorly fitted or top-dose-only effect; inactive = no such curve, though single readings can be large or run the other way; tested in HEK293T cells; also: % is scaled to controls: 0 for no effect and ±100 for the full control effect; nearly all actives have a fitted effect of over 45% in size; luciferase light after 4 h
Cruzain inh Det: cruzain (T. cruzi) inhibition with detergent; P25779; purified cruzain, Z-FR-AMC fluorescence, 0.01% Triton; Potency, µM, without a hit: max response, negative = inhibition, actives largely listed as inhibitors; 200,000 compounds, 0.43% hits; AID 1478; active = well fitted curve in the direction sought with a large enough effect; inconclusive = small, poorly fitted or top-dose-only effect, or another doubt; inactive = no such curve, though single readings can be large; an effect the other way counts as inactive or inconclusive;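 also: plate controls were neutral wells for no effect and buffer without enzyme for full effect; nearly all actives have a fitted effect of over 40% in size; top concentration of the series not given in the record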
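In this qHTS format, compounds are incubated with 1.5 nM cruzain for 15 min at room temperature before 2 uM Z-FR-AMC is added. Release of AMC is followed at 360/450 nm, and progress is taken as the 60 s fluorescence difference.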
SARS PLpro yeast: SARS-CoV PLP inhibition in yeast | S. cerevisiae expressing SARS-CoV PLpro, growth rescue; control for the full effect not named in the record | Potency, µM (highest dose often 32.9 µM), for inactives: at the top dose activity, positive = growth rescue | 330,000 compounds, 0.19% hits | AID 485353; also: 0% is about no effect; nearly all actives have a fitted effect of over 55% in size; growth read by luminescence after 48 h
RE007 growth inh: less growth of the S. pombe RE007 Vpr strain; S. pombe RE007 Vpr strain, BacTiter-Glo ATP luminescence, 24 h; control for the full effect not named in the record; Potency, µM (top dose mostly 92.2 µM), for the others: at the top dose activity change, negative = less growth; 360,000 compounds, 0.21% hits; AID 651644; active = well fitted falling curve with a large enough effect; inconclusive = small, poorly fitted or top-dose-only effect; inactive = no such curve, though single readings can be large or run the other way;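 also: % is scaled to controls: 0 for no effect and ±100 for the full control effect; nearly all actives have a fitted effect of over 50% in size; the assay follows cell death caused by Vpr and the record does not say whether a fall means rescue or toxicity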
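Fission yeast RE007 carrying one integrated HIV-1 vpr copy, seeded at OD 0.01 in PMG+AL medium with 23 nL pinned compound. Grown 24 h at 30 degrees; viability read by BacTiter-Glo luminescence after 5 min.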
* hit, by the source's call; ? = inconclusive; / = no result given; & = joins results of further samples; [ ] = dose if it differs, or a comment. Unless noted, calls follow the shape of the dose curve; as a rule, active means well fitted rising curve with a large enough effect; inconclusive means small, poorly fitted or top-dose-only effect; inactive means no such curve, though single readings can be large or run the other way. Potency is read from the fitted curve at half-maximal effect. Compounds were not picked by outcome (roughly 4.6% active in at least one column).

SMILES	NS1 inh	MARV entry inh	Cruzain noTriton	Lassa entry inh	2A StopGo	Cruzain inh Det	SARS PLpro yeast	RE007 growth inh
O=c1c2ccccc2nc(/C=C/c2ccc(O)cc2)n1-c1cccc(O)c1	9%	?	/	?	?	/	2%	11%
Cc1cc(C)c(S(=O)(=O)NCC(=O)NCc2cc(=O)n(C)c(=O)n2C)c(C)c1	12%	-4%[46.1 µM]	/	10%[46.1 µM]	-7%	/	1%	8%
Cc1ccc(Cl)cc1NC(=O)COC(=O)CC(C)(C)CC1=NS(=O)(=O)c2ccccc2N1	/	/	30%	-23%[46.1 µM]	-16%	0.2%	/	/
CS(=O)(=O)c1nc(-c2ccccc2)cc(-c2ccccc2)c1C#N	9%	13µM*	?	15µM*	?	-1.5%	4%	1%
O=C(NNC(=O)C1C2CCCCC21)c1coc(=O)c(Br)c1 (stereo not given)	9%	/	/	/	0%	/	1%	0%
Cc1cc(NC(=O)c2ccc3c(c2)C(=O)N(CCC(C)C)C3=O)no1	-8%	-7%	13%	-5%	-6%	2.6%	/	0%
CC(NCC(O)COCc1cccs1)C1CC2CCC1C2 (stereo not given)	-3%	?	-1%	-8%	-20%	2.6%	-9%	20%
O=C(CSc1nc(-c2ccco2)cc(C(F)(F)F)n1)Nc1ccc(C(=O)N2CCCCC2)cc1	-87%	6%	23%	/	?	-3.2%	-7%	16%
O=C(Nc1ccc(Cl)cc1)C1C2C=CC3(O2)C1C(=O)N(CCN1CCCCC1)C3C(=O)NC1CCCCC1 (stereo not given)	0%	?	/	1%[46.1 µM]	0%	/	2%	-19%
Cc1cc2nn(-c3ccc(F)cc3)nc2cc1NC(=O)c1cccc([N+](=O)[O-])c1C	/	?	0%	3%[46.1 µM]	18%	0.0%	/	/
COC(=O)c1cc(C(=O)OCC(=O)NC(=O)c2ccccc2)cc([N+](=O)[O-])c1	/	11%[46.1 µM]	/	9%	-24%	/	-1%	14%
O=C(c1ccccc1)N1CCN(C(=O)c2ccc(OC(F)(F)F)cc2)CC1	-7%	6%[46.1 µM]	0%	-5%	-21%	3.5%	3%	1%
CN(C)C(CNC(=O)CNC(=O)Cc1cccc2ccccc12)c1ccccc1 (stereo not given)	6%	?	/	1%	-10%	/	0%	-6%
O=C(CCNC(=O)Cn1ccc2ccccc2c1=O)NCCc1ccc(Cl)cc1	2%	?	-3%	-3%	-18%	-1.4%	0%	-10%
CC1(CCO)C(=O)NC(=S)NC1=O	/	15%	/	-9%[46.1 µM]	-10%	/	/	8%
CC(=O)c1sc2nc(CSc3nncn3C)[nH]c(=O)c2c1C	/	-17%[46.1 µM]	/	0%	-3%	/	-5%	4%
CN(c1ccccc1)S(=O)(=O)c1ccc(C(=O)N2CCCC2)cc1	/	-2%	/	?	-26%	/	2%	-5%
CCOc1ccc(CC(=O)Nc2c(C(N)=O)oc3ccccc23)cc1OCC	-2%	-2%	?	?	-19%	-1.5%	7%	12%
CC1=C(OC(=O)c2ccccc2)C(C)(C)C(c2ccccc2)OC1=O (stereo not given)	-2%	-1%&-1%	-7%	13%	0%	-0.9%	5%	42%
CCn1c(=O)c(C(=O)NCc2ccccn2)c(O)c2ccccc21	-154%	?	?	-15%	-22%	-11%	6%	?
Cc1nc(Cl)c(C(=O)NC(=O)NCc2ccccc2)c(C)c1Cl	-10%	-12%	-6%	?	-16%	-4.8%	15%	0%
COc1cccc(NC(=O)CSc2nc3c(sc4ccccc43)c(=O)n2CCCN2CCCC2)c1	25%	/	/	/	-16%	/	?	0%
O=C(CO)N/N=C/c1c2ccccc2cc2ccccc12	-5%	?	/	0%	12%	/	0%	34%
COc1cccc(-c2cc(C(=O)NCc3ccco3)no2)c1	-11%	-17%	0%	?	54%[activator]	-0.2%	4%	2%
CC(Sc1nc(-c2ccc(F)cc2)cs1)C(=O)N1c2ccccc2CC1C (stereo not given)	1%	?	-9%	?	?	-5.9%	10%	27%
CC(=O)c1ccc(NC(=S)NC2CCCC(C)C2C)cc1 (stereo not given)	/	10%[46.1 µM]	/	-15%	47%[activator]	/	-1%	-1%
COc1ccc(OC)c(Cc2nnc(CCC(=O)NC3CCCCC3)o2)c1	2%	/	/	/	29%	/	-1%	0%
COc1ccc(NS(=O)(=O)c2ccc(N3CCN(CCO)CC3)c([N+](=O)[O-])c2)cc1	-1%	-25%	/	-26%	-21%	/	-9%	-9%
CCOC(=O)C1(CCCc2ccccc2)CCN(C(=O)CCCn2cncn2)CC1	-2%	1%[46.1 µM]	/	?	-6%	/	1%	-9%
O=C(Nc1ccc(F)cc1)N1CCN2C(=O)c3ccccc3C12c1ccccc1 (stereo not given)	4%	-18%	-1%	?	-19%	-5.8%	1%	-9%
Cc1ccc(OC(=O)c2cccc(C(=O)Oc3ccc(C)cn3)n2)nc1	-9%	/	2%	/	/	7.8%	-4%	/
Cc1cc(C)c(NC(=O)CSc2nc3ccc(N4C(=O)c5ccccc5C4=O)cc3s2)c(C)c1	/	?	/	-17%	9%	/	-6%	-4%
C=C(C)CSc1[nH]c(=O)cc(C)c1C#N	1%	12%[46.1 µM]	/	2%[46.1 µM]	-7%	/	-1%	9%
COCCn1c(C)cc(O)c(C(c2ccc(Cl)cc2)N2CCCCC2)c1=O (stereo not given)	/	/	21%	-16%[46.1 µM]	-11%	-2.5%	/	/
CC1(C)CC(=O)C2=C(C1)Nc1ccccc1N(C(=O)C1CC1)C2c1ccco1 (stereo not given)	-2%	5%	/	4%	-23%	/	1%	-3%
COc1ccc(-n2c(COc3ccccc3)nnc2SCc2ccc(C#N)cc2)cc1	1%	?	5%	-13%	-27%	-2.7%	-5%	7%
O=S(=O)(c1cccs1)N1CN(CC2CCCO2)c2nc3ccccc3nc21 (stereo not given)	0%	-4%	2%	?	30%[activator]	-8.6%	?	0%
Cc1ccc(NC(=O)C(=O)c2cc(C)n(-c3ccc(F)cc3)c2C)cc1C	/	20%[46.1 µM]	1%	?	7%	-2.7%	/	/
COc1ccc2[nH]c(=O)c(CN(Cc3cccs3)S(=O)(=O)c3c(C)ccc4nsnc34)cc2c1	14%	?	-2%	13µM*	19%	-1.9%	0%	-1%
CCOc1ccc(S(=O)(=O)N2CCN(c3ccccc3)CC2)cc1C(N)=O	/	?	3%	4%[46.1 µM]	-12%	1.0%	/	/
CCOCCn1cnc2sc(C(=O)Nc3nc(C)c(C(=O)OCC)s3)c(C)c2c1=O	0%	-2%	22%	/	/	-0.1%	9%	/
Cc1nnc(C)n1/N=C/c1ccccn1	9%	6%	6%	-4%	-1%	-4.0%	-1%	0%
CC(C)COc1ccc(-c2nn(-c3ccccc3)cc2C(=O)Nc2nccs2)cc1	11µM*	?	10µM*	4%	-21%	-2.0%	?	12%
Cc1c(NC(=O)c2ccc([N+](=O)[O-])o2)cccc1-c1nc2ncccc2o1	4%	?	/	-5%	?	/	-9%	-27%
COc1cc2c(cc1OC)CN(C(=O)CSc1nnc3scc(-c4ccccc4)n13)CC2	-13%	36%&36%	-13%	2%	?	-4.4%	4%	16%
COc1cc(C(=O)N2CCC(n3c(C)nc4cc(F)ccc43)CC2)cc(OC)c1OC	4%	?	27%	-5%	-22%	6.0%	-12%	0%
O=C(Nc1cccc(C(F)(F)F)c1)c1cccnc1N1CCCC1	-3%	-7%	10%	11%	?	-0.6%	-9%	-8%
O=C(NCCc1ccccc1)c1cnc2sc(N3CCOCC3)nn2c1=O	/	/	-2%	20%[46.1 µM]	-6%	-1.6%	/	/
CCN(Cc1ccccc1)C(=O)c1ccc(NC(=O)c2ccc(OC)cc2)cc1	3%	/	/	/	-4%	/	0%	3%
COc1cc(NC(=O)OCc2ccccc2)c2ncccc2c1	/	-19%[46.1 µM]	/	-5%[46.1 µM]	-9%	/	/	3%

The results go on:
SMILES	NS1 inh	MARV entry inh	Cruzain noTriton	Lassa entry inh	2A StopGo	Cruzain inh Det	SARS PLpro yeast	RE007 growth inh
CCC(=O)OC1=CN(Cc2ccccc2)S(=O)(=O)c2ccccc21	/	5%[46.1 µM]	2%	-8%[46.1 µM]	14%	-9.8%	/	/
C#C[C@]1(O)CCC2C3C(CC[C@@]21C)[C@@]1(C)CC[C@@H](O)CC1=C[C@H]3O (stereo not given in full)	/	0%	/	1%	-17%	/	3%	2%
N/C(=N\O)c1ccc(Cl)cc1Cl	2%	/	/	/	-20%	/	1%	13%
Cc1ccccc1N1C(=O)N(c2cccc(C(F)(F)F)c2)C2CS(=O)(=O)CC21 (stereo not given)	1%	17%[46.1 µM]	6%	?	-5%	-0.4%	3%	3%
COc1ccccc1S(=O)(=O)Nc1cc(C)nn1-c1ccc(C)cc1	6%	-19%[46.1 µM]	/	2%	7%	/	1%	-4%
Nc1cccc(-c2nc3ncccc3o2)c1	10%	8%	/	?	0%	/	1%	5%
O=C(COc1ccccc1-c1nc(-c2ccccc2)no1)Nc1ccc([N+](=O)[O-])cc1	/	2%[46.1 µM]	-9%	-3%[46.1 µM]	-9%	-5.3%	/	/
Cc1oc(-c2ccccc2F)nc1CS(=O)(=O)CC(=O)N1CCOCC1	8%	/	7%	/	-1%	-7.8%	4%	2%
Cc1ccc(C=Nc2ccc(N(C)C)cc2)o1	3%	38%	-3%	?	-17%	0.7%	-10%	?
CCCCCN(C(=O)CCC(=O)OCCOc1ccc(OCC)cc1)c1c(N)n(CCCC)c(=O)[nH]c1=O	/	?	/	-18%	23%	/	5%	-3%
Cc1cc(C)cc(NC(=O)N2CCN(C(=O)c3nsc4ccccc34)CC2)c1	/	/	-4%	-17%[46.1 µM]	-22%	-5.9%	/	/
CC(C)c1ccc(OCC(=O)Nc2ccccc2C(=O)N2CCOCC2)cc1	-12%	3%	/	-1%	-28%	/	1%	20%
COc1cccc(-c2nnc(NC(=O)c3ccc(S(=O)(=O)N4CCOCC4)cc3)o2)c1	-11%	?	?	?	-21%	-1.3%	3%	3%

Screening data as filed in PubChem BioAssay.
